# Vif A3G: HIV-1 Vif–A3G interaction blockers – biochemical, TR-FRET, GST-Vif 1-94, biotin-A3G peptide, dose response retest, primary screen (AID 1117319); TR-FRET GST-Vif / biotin-A3G peptide binding; higher % means a stronger effect; test concentration not given here; strong numbers were not always called active; actives 0.57% (n = 260,000); inhibition, %, or IC50 in µM where a hit was titrated;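 active = above the screen mean plus three standard deviations and confirmed in dose response; inconclusive = results disagree or hit not tested in dose response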;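 also: Vif residues 1-94 fused to GST binding biotinylated APOBEC3G peptide 110-148; 0% = full assay without inhibitor and 100% = GST in place of GST-Vif; retest series ran down from 100 µM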
# Calb FLC: affects C. albicans growth with fluconazole | C. albicans CaCi-2 (fluconazole-resistant clinical isolate) + fluconazole, Alamar Blue growth, 48 h | growth inhibition, % (no concentration beside the values) | actives 0.57% (n = 300,000);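 active = most replicates above 75%; inconclusive = exactly half above 75%; inactive = most below 75%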;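 also: all wells also contain fluconazole at 8 µg/ml as a sub-toxic cotreatment; 0% = median of DMSO wells and 100% = median of geldanamycin control wells; wells of about 8 µL received 7.5 nL stock; the first replicate is given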
# RanGTP-Impb inh: disruptors of Ran-importin-beta complex formation – biochemical, FRET, CFP-Ran, YFP-importin-beta, homogeneous, primary screen; actives 1.1% (n = 300,000); AID 2216; cell-free CFP-Ran/YFP-importin-beta FRET ratio; inhibition, % (concentration not given with the values);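 active = most replicates above 15%; inconclusive = exactly half above 15%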;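 also: 0% = DMSO wells and 100% = Ran loaded with GDP instead of GTP; wells of about 40 µL received 100 nL stock; the first replicate is given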
# rRNA inh HTS: selective bacterial rRNA inhibition in E. coli. E. coli WT GFP vs humanized-ribosome RFP mutants, fluorescence, 24 h; stronger effect = lower value; DMSO median 0, no signal -100. GFP signal change (wild-type ribosome), % (test concentration not listed). actives 1.6% (n = 350,000). AID 720706;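 active = significant combined selectivity score with lowered wild-type GFP, culture density cut under 30%, mutant RFP and density less affected; inactive = any of these conditions unmet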; also: one replicate is shown; some compounds called inactive have numbers as strong as hits
# A1 inh: inhibitors of the anti-apoptotic protein A1, read as caspase activation; MEF A1-2A-BIM cells, Caspase-Glo 3/7 luminescence, 3 h; percent of clofoctol response, vehicle zero; caspase activation, % (no concentration beside the values); actives 0.066% (n = 330,000);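 active = over half of replicate activation scores above 10%, or exactly half above 10 with the replicate mean above 10; inconclusive = replicate mean below 10 yet half the replicates above 10; inactive = over half of replicates below 10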;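 also: wells of about 30 µL received 50 nL stock; many hits fall short of the cut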
# Beta apoptosis: blocks beta cell apoptosis; INS-1E cytokine-induced death, ATP luminescence, 48 h; percent of positive-control rescue, neutral wells zero; protection from apoptosis, % (concentration not given with the values); actives 0.8% (n = 300,000);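 active = all replicates at 75% or more, or half of them and the mean; inconclusive = half reach 75% but not the mean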;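 also: 0% = cytokine-treated negative control wells and 100% = positive control rescue; higher means more ATP so stronger rescue from cytokine killing; wells of about 40 µL received 100 nL stock; the first replicate is given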
# MLL AF4-AF9 inh: inhibitors of human MLL-AF4/AF9 interaction; AID 651704; actives 0.47% (n = 350,000); AlphaScreen, biotin-AF4 peptide binding to FLAG-AF9; inhibition, % at 10 µM;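 active = every replicate reaching a set inhibition limit, whatever the replicate mean, cut at about 25% in these data; inconclusive = mean inhibition reaches that limit but some replicates miss it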;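 also: 0% = plate neutral control median and 100% = total signal loss; the record names both 10 and 1 µM as test concentration; the first replicate is given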
# Target sequence (P42568 whole entry, looked up): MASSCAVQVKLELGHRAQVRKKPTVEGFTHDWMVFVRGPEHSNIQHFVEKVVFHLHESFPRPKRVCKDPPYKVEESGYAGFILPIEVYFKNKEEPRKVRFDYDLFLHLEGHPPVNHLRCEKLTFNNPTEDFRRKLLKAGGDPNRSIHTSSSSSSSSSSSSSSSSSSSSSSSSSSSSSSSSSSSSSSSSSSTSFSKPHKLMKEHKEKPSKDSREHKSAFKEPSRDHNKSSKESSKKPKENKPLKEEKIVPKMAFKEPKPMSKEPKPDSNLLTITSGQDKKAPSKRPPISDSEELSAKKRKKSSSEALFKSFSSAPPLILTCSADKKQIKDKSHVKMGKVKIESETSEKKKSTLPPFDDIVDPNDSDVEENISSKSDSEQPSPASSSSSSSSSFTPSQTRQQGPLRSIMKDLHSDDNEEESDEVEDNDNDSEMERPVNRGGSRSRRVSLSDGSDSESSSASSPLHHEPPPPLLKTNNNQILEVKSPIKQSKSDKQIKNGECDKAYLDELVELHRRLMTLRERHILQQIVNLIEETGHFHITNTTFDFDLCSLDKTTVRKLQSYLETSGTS
# T cruzi inh: blocks replication of Trypanosoma cruzi; T. cruzi beta-gal in NIH3T3, luminescence, 90 h; inhibition, % (concentration not given with the values); actives 1.4% (n = 300,000);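 active = mean inhibition across valid replicates above about 55%, limit read from the data; inconclusive = mean below that limit but half or more replicates reach it; inactive = mean below it, under half of replicates reach it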;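 also: signal also drops with host cell toxicity which is not excluded here; 0% = plate median of DMSO wells and 100% = zero luminescence signal; higher percent means less beta-gal luminescence so fewer parasites; stock transfer was 50 nL into about 50 µL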
# rRNA inh HTS OD600: second read-out of rRNA inh HTS, no call of its own (marks repeat the call); OD600 change, %; measured here: OD600 growth;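 optical density of the mix in the first replicate; 0 = DMSO median and -100 = no signal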
# rRNA inh HTS RFP: also measured in rRNA inh HTS; calls as there; RFP signal change, %; measured here: RFP humanized mutant strains;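 first replicate; 0 = DMSO median and -100 = no signal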
# Numbers without * were called inactive; ? = inconclusive; nt = not tested or not shown; & = joins results of further samples.
cpd	SMILES	Vif A3G	Calb FLC	RanGTP-Impb inh	rRNA inh HTS	rRNA inh HTS OD600	rRNA inh HTS RFP	A1 inh	Beta apoptosis	MLL AF4-AF9 inh	T cruzi inh
1	O=C(COC(=O)c1cc([N+](=O)[O-])ccc1Cl)NCCc1ccccc1	nt	nt	nt	-5	0	0.1	-0.3	1	-2.3	nt
2	O=C(Cn1nc(Cc2ccncc2)c2ccccc2c1=O)Nc1cccnc1Cl	30%	-4	1.1	-3	-2	-5.8	-1.5	-1	-36	9
3	CC1=NNC(=O)C1CCC(=O)N/N=C/c1ccc(Cl)cc1Cl (stereo not given)	-13%	-6	2.0	-1	-5	0.5	-0.9	-1	nt	7
4	Cc1nc2ncnn2c(C)c1CCC(=O)N1CC(C)CC(C)C1 (stereo not given)	6%	0	-6.2	nt	nt	nt	0.7	6	nt	0
5	COc1ccc(NS(=O)(=O)c2coc(C(N)=O)c2)cc1Cl	19%	-2	-5.6	0	-1	4.6	-0.5	-2	0.3	-7
6	Cc1ccc(S(=O)(=O)NC(=NC2CCCCC2)c2ccc(F)cc2)cc1	nt	-6	7.6	4	5	0.1	0.0	-8	2.7	7
7	COc1cc(NC(=S)N2CCN(C)CC2)c(OC)cc1Cl	3%	23	3.7	11	5	-2.4	0.7	-1	-1.4	-8
8	O=C(CSc1ccccn1)N/N=C/c1cc([N+](=O)[O-])ccc1O	15%	34	-1.7	-19*	-9.7*	6.2*	-2.6	2	2.7	-1
9	O=C(/C=C/NNC(=O)c1ccccc1)c1ccc([N+](=O)[O-])cc1	?	?	3.0	3	-4	-3.3	-1.4	95*	7.4	61*
10	COc1cc2nc(Nc3ccc(F)cc3)nc(N)c2cc1OC	nt	-1	6.0	-16*	6.4*	6.2*	-4.6	-2	13	6
11	Cc1ccccc1NC(=O)c1nc2nccc(C)n2n1	24%	?	8.0	nt	nt	nt	-4.7	3	nt	0
12	CCOc1ccc(C(C(=O)NC2CCCC2)N(C(=O)c2snc(C(N)=O)c2N)C2CCCC2)cc1 (stereo not given)	nt	-21	-1.2	5	-4	9.2	0.8	1	4.2	22
13	C=C(C)CN(CC)C(=O)CSc1ccc(S(=O)(=O)N2CCN(Cc3ccccc3)CC2)cn1	nt	nt	nt	-10	-22	0.2	0.4	10	0.6	nt
14	COc1ccc(C(=O)n2nc(-c3ccc(OC)cc3)nc2N)cc1	0%	3	-0.1	5	7	12	-1.1	0	1.4	3
15	CC(NC(=O)c1ccco1)C(=O)OCC(=O)c1ccc(Cl)s1 (stereo not given)	-16%	-19	-3.7	13	4	1.4	0.5	0	-0.6	-18
16	Cc1nn(-c2cc(C(F)(F)F)ccc2Cl)c2nc(C(F)(F)F)[nH]c(=O)c12	-5%	-5	-1.7	nt	nt	nt	0.8	4	nt	-12
17	Cc1ccccc1CSCc1nc(N)nc(Nc2ccccc2C)n1	nt	8	0.9	6	-6	-1.2	2.3	-4	-2.1	30
18	CCCc1nnc(NC(=O)CCC(=O)N2CCN(Cc3ccccc3)CC2)s1	nt	nt	3.3	8	-6	-0.1	0.4	1	0.4	20
19	O=C(CCCCCn1c(=S)[nH]c2ccc(N3CCOCC3)cc2c1=O)NCc1ccccc1	4%	-4	-1.4	0	-1	1.8	-0.8	-1	1.1	7
20	COc1ccc(OCC(=O)Nc2ccc(N3CCN(C(=O)c4ccccc4)CC3)c(Cl)c2)cc1	nt	-8	4.0	0	1	0.2	-0.2	4	-0.5	30
21	Cc1sc2nc(SCc3nc4ccccc4[nH]3)n(Cc3ccco3)c(=O)c2c1C	1%	12	5.4	3	-6	13	-0.3	-14	6.5	37
22	CCOc1cc(/C=C2/C(=N)N3C(=NC2=O)SN=C3S(C)(=O)=O)ccc1OS(=O)(=O)c1ccccc1	2%	32	5.1	nt	nt	nt	-0.3	-1	nt	-13
23	CC(C)(C)c1ccc(C(=O)NCc2cccnc2)cc1	1%	-2	5.0	nt	nt	nt	0.6	-5	nt	-10
24	COc1cccc(/C=C/C(=O)c2c(O)cc(C)oc2=O)c1O	9%	22	2.1	nt	nt	nt	-0.4	-8	1.4	-12
25	Cc1ccc(NC(=O)c2ccc(-n3cccn3)nc2)cc1	0%	-3	2.8	14	11	2.7	0.3	-2	-7.6	-4

# (further entries)
cpd	SMILES	Vif A3G	Calb FLC	RanGTP-Impb inh	rRNA inh HTS	rRNA inh HTS OD600	rRNA inh HTS RFP	A1 inh	Beta apoptosis	MLL AF4-AF9 inh	T cruzi inh
26	CCOc1ccccc1NC(=O)CSc1nnc(CNC(=O)c2cc(OC)c(OC)c(OC)c2)o1	nt	-3	2.3	4	9	0.3	0.8	1	-0.1	-11
27	Cc1cccc(C(=O)OCC(=O)NC2CCCCCCC2)c1	-12%	nt	nt	-3	-18	-4.4	-1.3	-3	-4.5	nt
28	Cc1ccc(-c2nc3ccccn3c2C=O)cc1	nt	59	-0.9	3	5	1.3	1.8	2	-1.9	-8
29	CSCCC(NC(=O)c1ccccc1)C(=O)N1CCN(C(c2ccccc2)c2ccccc2)CC1 (stereo not given)	nt	-2	3.8	3	10	-0.7	0.8	3	1.3	28
30	Nc1c(S(=O)(=O)c2cccs2)c2nc3ccccc3nc2n1CCc1ccccc1	11%	12	?	nt	nt	nt	-0.4	3	nt	48
31	O=C(Nc1ccccc1)C1=C[C@@H](c2csc3ccccc23)C[C@@H](OCc2ccc(CO)cc2)O1	3%	1	-3.3	1	8	0.2	0.5	14	-7.8&-0.4	52
32	CC1(NC(=O)c2cccc(S(=O)(=O)N3CCN(c4ccccc4)CC3)c2)CCS(=O)(=O)C1 (stereo not given)	4%	0	1.8	1	3	-2.4	-0.7	2	-22	-2
33	COc1ccc(NC(=O)C(=O)NCC(=O)Nc2cc(OC)ccc2OC)cc1	nt	-15	1.8	6	7	1.0	-0.4	-2	-0.4	5
34	Fc1ccc(/C=N/Nc2ccccn2)cc1	-1%	nt	nt	nt	nt	nt	-3.9	-2	5.7	14
35	CC(O)c1cccc(NC(=O)CC(c2ccccc2)c2ccccc2)c1 (stereo not given)	nt	48	-2.4	-4	-1	-1.2	0.1	0	-6.0	-3
36	Cc1ccc(-c2nnn(CC(=O)N(CC(=O)NCc3ccccc3)c3cccc(C)c3C)n2)o1	-11%&-6%	13	4.0	nt	nt	nt	-0.4	-2	nt	7
37	CCCc1c(NC(=O)Nc2ccc(Cl)cc2Cl)cnn1-c1ccccc1	-10%	-4	-1.9	10	13	-0.4	0.8	nt	1.9	10
38	O=C(COc1ccc(Cl)cc1)Nc1ccc(C(=O)NCc2cccnc2)cc1	0%	6	1.7	nt	nt	nt	-0.2	101*	nt	6
39	CCOC(=O)c1oc2ccccc2c1CSc1nnnn1-c1ccc(OC)cc1	3%	9	?	nt	nt	nt	-2.4	-11	nt	8
40	CC(=O)N1CCOc2ccc(S(=O)(=O)N3CCC(C(=O)Nc4ccc(F)cc4)CC3)cc21	nt	-14	2.4	-3	1	-0.1	0.2	4	-1.3	4
41	CC(=O)Nc1ccc2nc(-c3ccccc3)cn2c1	10%	-3	-1.0	-3	-4	2.0	-2.3	-2	-1.4	-7
42	CC1CCN(CC(C)CNC(=O)c2cc(-c3ccccn3)nc3ccccc23)CC1 (stereo not given)	-3%	-6	2.2	9	12	-9.5	-0.1	4	-61	1
43	CCCC(N)CCCCCC(=O)O (stereo not given)	?	-29	?	nt	nt	nt	nt	nt	nt	-18
44	CCc1nnc(NS(=O)(=O)c2ccc(N=Cc3c(C)[nH]n(-c4cccc(Cl)c4)c3=O)cc2)s1	1%	-3	?	-1	9	-4.9	-7.8	-2	-5.0	2
45	COc1cc(OC)cc(C(=O)NCc2n[nH]c(=S)n2-c2ccccc2OC)c1	15%	2	-1.7	nt	nt	nt	-0.5	1	nt	7
46	O=C(COc1ccc(Cl)cc1Br)Nc1cccc(S(=O)(=O)N2CCCC2)c1	nt	nt	nt	-18	-18	-15	0.6	-2	0.2	nt
47	O=S(=O)(NCc1ccccc1)c1cccc2nonc12	-2%	16	3.7	nt	nt	nt	-0.1	1	nt	9
48	Cc1cc(OCC(=O)Nc2ccc3oc(=O)ccc3c2)ccc1Cl	nt	2	4.3	11	7	1.0	-0.2	nt	-4.2	22
49	CC1(C)Oc2ccc3ccc(=O)oc3c2-c2cn[nH]c21	1%	6	-3.6	nt	nt	nt	-0.1	4	nt	-4
50	OCCOCCn1c(C(CO)Nc2nc(-c3cccc(Br)c3)cs2)nc2ccccc21 (stereo not given)	nt	1	-1.0	-5	-7	1.6	-0.6	-2	nt	33

# (listing goes on)
cpd	SMILES	Vif A3G	Calb FLC	RanGTP-Impb inh	rRNA inh HTS	rRNA inh HTS OD600	rRNA inh HTS RFP	A1 inh	Beta apoptosis	MLL AF4-AF9 inh	T cruzi inh
51	S=C(NCC1CCCO1)Nc1ccccc1Cl (stereo not given)	0%	-8	4.3	3	-12	-2.8	0.1	-9	6.9	-20
52	Cc1nnc(SCC(=O)Nc2ccc(C(N)=O)cc2)n1-c1ccccc1	nt	5	-0.1	1	4	0.0	0.2	-1	-2.1	-13
53	Cc1cc(Cl)ccc1OCCCC(=O)Nc1cccc(-n2cnnn2)c1	-14%	3	7.2	-40	-67	-13	-1.0	-3	0.5	-2
54	CC1=C(C(=O)OCc2ccc(C)cc2)C(c2ccc(O)c([N+](=O)[O-])c2)NC(=O)N1 (stereo not given)	6%	-8	3.5	10	5	1.5	-0.1	-3	-1.1	30
55	CC(C)C(Nc1ncnc2c1oc1ccccc12)C(=O)O (stereo not given)	-1%	17	-1.3	6	7	2.6	-0.7	0	-1.0	77*
56	O=C(NCC(=O)N(c1ccc2c(c1)OCO2)C(C(=O)NC1CCCC1)c1ccncc1)c1ccco1 (stereo not given)	21%	5	6.3	nt	nt	nt	0.9	-8	nt	3
57	COc1ccc(OC)c(/C=N/NC(=O)CC(=O)NC2CCCCC2)c1	-4%	-7	-0.7	28	15	4.4	-0.2	-3	-0.5	-4
58	CC(=O)Nc1cccc(NC(=O)C2CC(=O)N(CCc3ccc(F)cc3)C2)c1 (stereo not given)	nt	-2	-2.9	2	15	3.2	-0.1	-2	-0.8	3
59	O=C(NCCc1ccccc1F)C1CCCN(c2nc3ccccc3s2)C1 (stereo not given)	nt	0	-2.9	0	-1	-0.8	1.6	-3	4.2	8
60	CCOC(=O)C1C(C)=CC(=O)CC1c1ccco1 (stereo not given)	2%	-5	0.2	nt	nt	nt	-1.4	0	nt	-4
61	CC(C)(C)c1ccc(C(=O)N/C(=C\c2ccco2)C(=O)Nc2ccccc2C(=O)O)cc1	nt	10	0.3	19	-4	7.8	0.8	2	1.0	0
62	Cc1cc(C)c2c(c1)/C(=N/NS(=O)(=O)c1ccc(Br)cc1)CCC2	5%	2	3.8	nt	nt	nt	0.2	-8	nt	11
63	Nc1nc(Nc2ccccc2)sc1C(=O)c1ccccc1	123%	4	-5.3	-8	-12	11	-1.2	-41	12	nt

# Source: PubChem

# These rows are one share of the data; the hit share may differ from the screen's.
